# Screening data (PubChem)
# KSHV LANA nucl: LANA-nucleosome interaction inhibition; AID 720717; z-score (test concentration not listed); actives 0.3% (n = 51,000); FITC-LANA1-23 / chicken nucleosome fluorescence polarization; hits give low values;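 active means both repeat wells score below -2 in polarization z-score versus plate sample wells, excluding overly bright wells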;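 further: 100 nL library stock added to about 30 µL; numbers are from one replicate; some results filed as inactive read as strong as hits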
#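 Assay system: FITC-LANA peptide and chicken nucleosomes; input: 240 nM purified chicken nucleosomes (480 nM peptide binding sites), final; also added: 50 nM FITC-LANA1-23 probe; medium: TEN-BT buffer, pH 7.5; doses: pin-transferred compound, 100 nL; times: 10–45 min, room temperature; technique: fluorescence polarization; replication: duplicates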
# Ab BasE inh: inhibitors of Acinetobacter baumannii siderophore enzyme BasE; purified BasE, fluorescence polarization binding displacement; inhibition, % (test concentration not listed); actives 0.1% (n = 84,000); AID 485350;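 active means both replicates above 25% with normal brightness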;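 further: 0% = negative plate control signal and 100% = positive plate control signal; stock transfer was 100 nL into about 30 µL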
# * marks the source's active call; other numbers are inactive results; . = not tested or not shown. A portion of the library; the hit share may differ from the screen's.
# A first look, 5 compounds:
# Every second line gives: KSHV LANA nucl	Ab BasE inh
> COc1ccc(-c2nc(-c3ccc(C)cc3C)cs2)cc1
 : .	1.3
> O=C(O)c1ccc(NC(=S)N2CCCCC2)cc1
 : -0.734	1.0
> S=C1NNC2(CC3CC2C2CCCC32)NN1 (stereo not given)
 : 1	-0.9
> Cc1ccccc1C(=O)Nc1ccccc1N1CCN(C)CC1
 : 0.573	-2.1
> O=C(CN1CCCN(Cc2ccccc2)S1(=O)=O)NCCc1ccccc1
 : 0.417	1.4

# Results, repeating the preview:
# Every second line gives: KSHV LANA nucl	Ab BasE inh
> COc1ccc(-c2nc(-c3ccc(C)cc3C)cs2)cc1
 : .	1.3
> O=C(O)c1ccc(NC(=S)N2CCCCC2)cc1
 : -0.734	1.0
> S=C1NNC2(CC3CC2C2CCCC32)NN1 (stereo not given)
 : 1	-0.9
> Cc1ccccc1C(=O)Nc1ccccc1N1CCN(C)CC1
 : 0.573	-2.1
> O=C(CN1CCCN(Cc2ccccc2)S1(=O)=O)NCCc1ccccc1
 : 0.417	1.4
> O=C1CSCC(=O)N1c1ccccn1
 : -0.144	0.7
> Cc1sc2c(c1C)C(=O)/C(=C\Nc1ncccn1)S(=O)(=O)N2C
 : 0.506	5.1
> COCCn1cnnc1SCC(=O)Nc1ccc(Cl)cc1F
 : .	4.1
> O=C(Nc1ccc(Cl)cc1)NC(C(=O)O)c1ccccc1 (stereo not given)
 : -0.573	2.0
> CC1CC(C)CN(C(=O)CSc2n[nH]c(N)n2)C1 (stereo not given)
 : .	-0.9
> CCCN(CC(=O)Nc1ccc(F)c(F)c1F)Cc1cc(=O)n2ccsc2n1
 : .	2.2
> O=C(Nc1ccc(-c2nnc(-c3ccccc3)o2)cc1)C1CCCC1
 : -0.158	-0.2
> CC(SC1CCCC1)C(=O)NC(C)(C#N)C(C)C (stereo not given)
 : .	1.6
> Cc1cc(Br)ccc1NC(=O)CCNS(=O)(=O)c1cccc2nsnc12
 : 0.263	1.3
> C[C@H](NC(=O)c1ccc(C(C)(C)C)cc1)C(=O)N1CCOCC1
 : .	0.4
> CCCc1c(-c2nc(-c3ccc(Cl)cc3)no2)cnn1-c1ccccc1
 : .	3.7
> CC(C)(C)C(=O)/C=c1\s/c(=C\c2c(F)cccc2F)c(=O)n1CC(=O)NCc1ccco1
 : .	-4.2
> Cn1c(=O)[nH]c(=O)c2[nH]c(CN3CCOCC3)nc21
 : -0.405	4.1
> O=C(NCC(c1ccco1)N1CCCCC1)c1ccccn1 (stereo not given)
 : .	2.1
> CCn1c(-c2ccc(F)cc2)csc1=Nc1ccc(C)cc1
 : .	-1.5

# Record cards, from the list above. Order of screens: KSHV LANA nucl, Ab BasE inh
# Listed for S=C1NNC2(CC3CC2C2CCCC32)NN1 (stereo not given) → 1, -0.9
# Listed for O=C(O)c1ccc(NC(=S)N2CCCCC2)cc1 → -0.734, 1.0

# Next structures:
# Every second line gives: KSHV LANA nucl	Ab BasE inh
> O=C(C1Sc2nnc(-c3ccccc3)n2NC1c1ccccc1)N1CCCCC1 (stereo not given)
 : 1.42	-4.0
> O=C(N/N=C/c1ccc2c(c1)OCCO2)c1ccncc1
 : .	0.1
> [O-][n+]1ccccc1SC1=COCCC1
 : 0.34	-0.5
> c1ccc(Cn2nnc3c(Sc4nnc(-c5ccncc5)o4)ncnc32)cc1
 : -0.261	1.4
> Cc1cc(NC(=O)CNCC2CCCCC2)no1
 : -0.599	2.9
> C=CCN(C(=O)c1ccc(C)s1)c1nc(-c2ccc(S(C)(=O)=O)cc2)cs1
 : .	1.3
> O=C(N/N=C/c1ccc(N2CCCCC2)cc1)c1cccnc1
 : .	0.7
> O=C(CNC(=O)c1ccc2c(c1)OCO2)Nc1cccnc1
 : .	16.8
> Cc1cc2c(cc1C)C(=O)C(N1CCOCC1)=C(c1ccccc1)C2=O
 : -0.255	1.0
> O=C(OCc1cn2cc(Cl)ccc2n1)C1=NN(c2ccccc2)C(=O)CC1
 : .	1.2
> Nc1c(C(=O)c2cccs2)sc2nsc(SCCN3CCCCC3)c12
 : 2.5	.
> CC1(N=Cc2ccccc2)CCS(=O)(=O)C1 (stereo not given)
 : .	-1.0
> Cc1ccc(CN2CCN(C(=O)C3CC=CCC3C(=O)O)CC2)cc1 (stereo not given)
 : -0.458	-1.0
> Fc1ccccc1CSc1nnc2ccc(-c3ccco3)nn12
 : 0.783	-0.9
> COc1ccc(C(C2=C(O)CC(C)(C)CC2=O)c2c(C)[nH]c3ccccc23)cc1 (stereo not given)
 : .	-2.5
> COc1nc2ccccc2nc1CCC(=O)N1CCCC1
 : 0.211	1.6
> Cc1ccc(CN2CCC(CNC(=O)Cn3ncc4c([nH]c5ccccc54)c3=O)C2)cc1 (stereo not given)
 : 2.47	-11.5
> CCOc1c(C)cc(-c2ncccc2O)cc1C
 : 0.733	-2.3
> O=C(CN1CCn2nc(-c3ccccc3)cc2C1=O)N1CCCC1
 : 0.577	0.6
> O=C(Oc1ccc(N(Cc2cccs2)C2=NS(=O)(=O)c3ccccc32)cc1)c1ccccc1
 : .	2.3
> CCN(CC)C(=O)O[n+]1ccccc1C(C)C
 : 0.174	0.7
> Cc1cc(C(=O)CN(CC2CCCO2)C2CCS(=O)(=O)C2)c(C)n1C (stereo not given)
 : .	0.3
> CCSc1nnc(C2CCCN(CC(=O)Nc3nc(C)cs3)C2)n1C (stereo not given)
 : -0.612	-0.4
> Cc1cc(C(=O)Cn2nnc3ccccc3c2=O)c(C)n1C
 : .	-0.3
> C#CCSc1cccc2cccnc12
 : -0.579	-0.5
> Cc1cc(-c2ccc(C)c(S(=O)(=O)N(C)Cc3ccccc3)c2)on1
 : .	-2.4
> CCc1c(C)nc(SCC(=O)N(CC)CC)c(C#N)c1C
 : 0.453	1.6
> O=C(OCC(=O)N(c1ccccc1)C1CCCCC1)C1COc2ccccc2O1 (stereo not given)
 : .	1.7
> CC(C)S(=O)(=O)c1nc2ccccc2n1Cc1ccccc1
 : -0.356	3.8
> CC(NC(=O)c1cccn1C)C12CC3CC(CC(C3)C1)C2 (stereo not given)
 : .	0.4
> O=C(Nc1ccc(F)cc1)C(c1ccccc1)N1CCN(c2ccccc2F)CC1 (stereo not given)
 : .	-1.4
> O=C(Nc1ccc(S(=O)(=O)N2CCOCC2)cc1)C(F)(F)C1(F)OC(F)(F)C(F)(F)C1(F)F (stereo not given)
 : .	-1.6
> CCOC(=O)C(C#N)C1(c2ccccc2)CCOC(C)(C)C1 (stereo not given)
 : -0.146	4.5
> Nc1ccn(Cc2ccc(F)cc2)n1
 : -1.18	-3.3
> CCOC(=O)CC1C(=O)NCCN1C(=O)c1cc2c(=O)n3ccccc3nc2s1 (stereo not given)
 : .	-1.7
> O=C(c1cc(-c2ccccc2)on1)N(Cc1ccccc1)c1ccccc1
 : 0.463	1.1
> C=CCN1C(=O)/C(=N\N=C\c2c(C)nn(-c3ccccc3)c2C)c2ccccc21
 : .	2.4
> CCc1noc(C)c1C(=O)NCc1ccc(C(=O)OC)cc1
 : .	2.5
> CCOC(=O)C1CCN(S(=O)(=O)c2ccccc2)CC1
 : 0.391	-0.4
> O=C(O)CCC(=O)CCN1CCCCC1
 : 0.712	2.7
> O=C1NC2(Cc3ccccc3C2)Nc2ccccc21
 : -2.05*	1.6
> CCn1c(SCC(=O)c2ccccc2)nnc1-c1ccc(OC)cc1
 : .	3.8
> C=CCn1c(SCC(=O)N(C(C)C)C(C)C)nc2scc(-c3ccco3)c2c1=O
 : .	-2.0
> COc1ccc(OCCC(=O)Nc2nnc(C3CC3)s2)cc1
 : .	-0.6
> Cc1ccccc1N(CC(=O)Nc1ccccc1N1CCN(C)CC1)S(C)(=O)=O
 : .	-0.3
> CCC(=O)Nc1cc2c3c(c1)C(C)C(=O)N3CCC2 (stereo not given)
 : -1.71	1.9
> CCCCC[C@H](O)/C=C/[C@H]1C(=O)C=C[C@@H]1C/C=C\CCCC(=O)O
 : -0.085	-2.0
> Cc1ccc2c(c1)-c1onc(C(=O)N3CCCCC3)c1CO2
 : -1.74	0.9
> COc1ccc(NC(=O)CN2CCN(S(=O)(=O)c3cccs3)CC2)cc1Cl
 : .	-0.6
> Cc1ccc(NC(=O)COC(=O)c2ccc[nH]c2=O)c(S(=O)(=O)N2CCOCC2)c1
 : .	1.9
> Cc1cc(-c2nc(-c3ccc(Cl)cc3)cs2)no1
 : .	0.3
> CC(=O)Nc1nc(Cn2nc(C(=O)O)c3ccccc3c2=O)cs1
 : .	2.5
> O=C(CN1CCN(S(=O)(=O)c2ccccc2)CC1)Nc1ccc2c(c1)CCC2
 : .	-2.8
> CC1(C)OC(=O)C(=CNc2ccccc2F)C(=O)O1
 : -0.703	-0.6
> O=C(CN1CCOCC1)Nc1scc(-c2ccccc2)c1C(=O)N1CCOCC1
 : .	2.0
> O=C(ON1C(=O)c2ccccc2C1=O)c1ccc(NC(=O)c2ccco2)cc1
 : -0.932	2.5
> CCCn1c(SCC(=O)NCCc2ccccc2)nc2c(oc3ccccc32)c1=O
 : -1.88	2.0
> Cc1c2n(c3ccccc13)C/C(=C\c1ccccc1)C2=O
 : .	-2.0
> Cc1nc(NCc2ccco2)[nH]c(=O)c1CCC(C)C
 : 1.02	-2.5
> CS(=O)(=O)c1ccccc1C(=O)Nc1cccc2ncccc12
 : .	3.9

# (next part)
# Every second line gives: KSHV LANA nucl	Ab BasE inh
> O=C1CSCC(=O)N1Cc1ccc(Cl)c(Cl)c1
 : -0.392	.
> Cc1ccc(S(=O)(=O)NC(=O)NCC2CCCO2)cc1 (stereo not given)
 : .	2.2
> CN(C)/C=C1\C(=O)N(C)N=C1c1ccccc1O
 : .	5.7
> COc1ccc(OCC(O)CC(=O)O)cc1 (stereo not given)
 : -0.321	1.5
> Cc1nc2cc(Nc3ccncc3)ccc2s1
 : 0.439	-3.3
> COC(=O)c1cc(NC(=O)CN2C(=O)c3ccccc3C2=O)cc(C(=O)OC)c1
 : 0.0715	1.7
> O=S(=O)(c1ccc(OCC(O)CNC2CC2)c(Cl)c1)N1CCOCC1 (stereo not given)
 : .	1.5
> COC(=O)c1ccc(S(=O)(=O)NN2CCOCC2)n1C
 : .	1.7
> Cc1noc(C)c1CSc1ncccc1C(=O)Nc1ccnn1C1CCCC1
 : .	-0.6
> O=C(Cn1cc(/C=N/NC(=O)c2ccc(Oc3ccc(O)cc3)cc2)c2ccccc21)NCc1ccco1
 : -1.03	2.4
> Cc1noc(C)c1COc1cccc(C(=O)NC2CCCCCC2)c1
 : .	-0.6
> CC1(C)C(c2ccccc2)=[N+]([O-])CN1O
 : -0.56	1.0
> COc1ccccc1/C=C/CN1CCN(Cc2ccccc2)CC1
 : -0.043	-1.4
> CCCN1CCN(C(=O)c2c(C)nn(-c3ccccc3)c2Cl)CC1
 : .	0.9
> CCCc1ccc(C(=O)N2CCOCC2)cc1
 : -0.974	2.1
> COc1ccccc1NC(=O)C1CC(=O)N(C)C(=Nc2ccccc2)S1 (stereo not given)
 : .	1.6
> Cc1c(NC(=O)CSc2nnc(Cc3ccccc3)o2)c(=O)n(-c2ccccc2)n1C
 : 0.163	3.0
> N#Cc1cc2cc(Br)ccc2oc1=O
 : -0.566	3.9
> CC(=O)N(C(C)=O)c1ncnc2sc3c(c12)CCCC3
 : 0.23	0.3
> N#CC1=C(N)N=C(SCc2ccccc2)C(C(N)=O)C12CCCCC2 (stereo not given)
 : -1.48	0.1
> O=c1[nH]nc(C(F)(F)F)n2cccc12
 : .	1.3
> O=c1[nH]cnc2nc3c4ccccc4c4ccccc4c3nc12
 : -0.481	1.5
> Cc1cccc(OC2CCS(=O)(=O)C2)c1 (stereo not given)
 : -0.0515	-1.6
> COc1cc(-c2nc3cc(Cl)ccc3o2)cc(OC)c1OC
 : 0.152	1.1
> O=C(c1cccc(S(=O)(=O)N2CCc3ccccc32)c1)N1CCCCC1CO (stereo not given)
 : .	-4.6
> CC(=O)N(Cc1ccc(Br)cc1)c1ccccc1C(=O)O
 : .	-2.6
> O=S(=O)(c1ccc(-n2cnnn2)cc1)N(Cc1ccccn1)C1CC1
 : 0.079	-0.2
> Cc1ccc(C)n1CCC(=O)O
 : -1.04	9.8
> CC(OC(=O)C(c1ccccc1)c1ccccc1)C(=O)N1CCN(C(=O)c2ccco2)CC1 (stereo not given)
 : .	0.7
> NC(=O)c1cc(S(=O)(=O)N2CCCC2)cs1
 : -0.782	2.1
> O=C(NCc1ccc2c(c1)CCO2)c1cc(F)cc2c1OCOC2
 : -0.285	-0.3
> CC(C)N1C(=O)S/C(=C/c2cc(Br)c(OCC(=O)O)c(Br)c2)C1=O
 : .	0.5
> O=S1(=O)CC2SC(=S)N(CC3CCCO3)C2C1 (stereo not given)
 : .	2.1
> CS(=O)(=O)N1CCC2(CC1)OCCN2S(=O)(=O)c1ccccc1
 : -0.994	2.0
> Cc1c(C(=O)NN=C2CCCCCC2)nnn1-c1nonc1N
 : 0.897	-5.8
> CCCn1c(SCc2nc(N)nc(Nc3ccccc3CC)n2)n[nH]c1=O
 : .	1.1
> CN1/C(=C\C=N\NC(=O)Cn2cncn2)C(C)(C)c2ccccc21
 : .	6.1
> CSc1cc(/C=N/O)c(SC)s1
 : 0.404	-0.9
> O=C1CSc2ccc(C(=O)N3CCc4ccccc43)cc2N1
 : .	0.3
> Cc1nnc(SCC(=O)NC2CCCCC2)o1
 : 0.214	-0.6
> CC(=O)N1CCN(C(=S)NC2CC3CCC2C3)CC1 (stereo not given)
 : .	-0.4
> Oc1ccc2n[nH]nc2c1
 : -0.155	1.2

# Pulled one by one from the entries so far (two):
# Every second line gives: KSHV LANA nucl	Ab BasE inh
> O=c1[nH]cnc2nc3c4ccccc4c4ccccc4c3nc12
 : -0.481	1.5
> O=S(=O)(c1ccc(-n2cnnn2)cc1)N(Cc1ccccn1)C1CC1
 : 0.079	-0.2
